# Screening data deposited in PubChem by Broad Institute.
# Ran FRET = RanGTP/importin-beta interaction disruptors – biochemical, CFP-Ran/YFP-importin-beta FRET, RCC1, cell-free, primary screen (AID 434961); inhibition, %; 7,700 compounds, 0.2% hits; CFP-Ran/YFP-importin-beta FRET, cell-free; active compounds read high;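 active = more than half of the replicate wells above 15% inhibition; inconclusive = exactly half above it; inactive = fewer than half above it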;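 also: 0% = DMSO wells and 100% inhibition = RanGDP control wells on each plate; stock of unstated strength diluted about 400-fold; mean of two wells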
# Starred values were filed as active, the others as inactive; ? = inconclusive. Not all compounds are listed; rates above refer to the full screens.
item	Ran FRET	canonical_smiles
1	2.7	COc1ccc(NC(=O)Nc2cccc3c2O[C@H](CN(C)C)[C@H](C)CN([C@@H](C)CO)C3=O)cc1
2	-0.1	COc1ccc(S(=O)(=O)N(C)C[C@@H]2Oc3c(NS(=O)(=O)c4cn(C)cn4)cccc3C(=O)N([C@H](C)CO)C[C@@H]2C)cc1
3	-1.8	C[C@@H]1CN([C@@H](C)CO)C(=O)Cc2cc(NC(=O)Cc3ccccc3)ccc2O[C@@H]1CN(C)Cc1ccc(C(F)(F)F)cc1
4	-4.8	Cc1noc(C)c1NC(=O)Nc1ccc2c(c1)C(=O)N([C@H](C)CO)C[C@@H](C)[C@H](CN(C)C)OCCCC[C@@H](C)O2
5	0.7	C[C@H](CO)N1C[C@H](C)[C@@H](CN(C)Cc2ccc(Oc3ccccc3)cc2)OCc2cnnn2CCCC1=O
6	-2.2	C[C@@H]1CCCCO[C@H](CN(C)C(=O)CCC(F)(F)F)[C@@H](C)CN([C@@H](C)CO)C(=O)c2cc(N(C)C)ccc2O1
7	-2.4	C[C@H]1CN([C@@H](C)CO)C(=O)Cc2cc(NS(=O)(=O)c3cccs3)ccc2O[C@H]1CN(C)C(=O)Nc1ccc2c(c1)OCO2
8	2.0	CNC[C@H]1Oc2c(NC(=O)c3cnccn3)cccc2C(=O)N([C@@H](C)CO)C[C@H]1C
9	-1.7	C[C@H]1CN([C@@H](C)CO)C(=O)CCCn2nncc2CO[C@H]1CN(C)Cc1ccccc1
10	-3.5	C[C@H](CO)N1C[C@H](C)[C@@H](CN(C)Cc2ccccc2)OCCCC[C@H](C)Oc2ccc(NS(=O)(=O)c3cccs3)cc2C1=O
11	-7.0	CC(C)NC(=O)Nc1ccc2c(c1)C(=O)N([C@H](C)CO)C[C@H](C)[C@H](CN(C)C(=O)Cc1ccccc1)OCCCC[C@@H](C)O2
12	1.6	C[C@H](CO)N1C[C@H](C)[C@@H](CN(C)C(=O)Nc2cccc3ccccc23)Oc2ccc(NC(=O)C3CC3)cc2CC1=O

# Arranged by the number under Ran FRET (high to low): three of the compounds above
item	Ran FRET	canonical_smiles
1	2.7	COc1ccc(NC(=O)Nc2cccc3c2O[C@H](CN(C)C)[C@H](C)CN([C@@H](C)CO)C3=O)cc1
3	-1.8	C[C@@H]1CN([C@@H](C)CO)C(=O)Cc2cc(NC(=O)Cc3ccccc3)ccc2O[C@@H]1CN(C)Cc1ccc(C(F)(F)F)cc1
10	-3.5	C[C@H](CO)N1C[C@H](C)[C@@H](CN(C)Cc2ccccc2)OCCCC[C@H](C)Oc2ccc(NS(=O)(=O)c3cccs3)cc2C1=O

# The listing picks up with the 5 entries that preceded the break.
item	Ran FRET	canonical_smiles
8	2.0	CNC[C@H]1Oc2c(NC(=O)c3cnccn3)cccc2C(=O)N([C@@H](C)CO)C[C@H]1C
9	-1.7	C[C@H]1CN([C@@H](C)CO)C(=O)CCCn2nncc2CO[C@H]1CN(C)Cc1ccccc1
10	-3.5	C[C@H](CO)N1C[C@H](C)[C@@H](CN(C)Cc2ccccc2)OCCCC[C@H](C)Oc2ccc(NS(=O)(=O)c3cccs3)cc2C1=O
11	-7.0	CC(C)NC(=O)Nc1ccc2c(c1)C(=O)N([C@H](C)CO)C[C@H](C)[C@H](CN(C)C(=O)Cc1ccccc1)OCCCC[C@@H](C)O2
12	1.6	C[C@H](CO)N1C[C@H](C)[C@@H](CN(C)C(=O)Nc2cccc3ccccc23)Oc2ccc(NC(=O)C3CC3)cc2CC1=O
13	-3.3	Cc1noc(C)c1S(=O)(=O)N(C)C[C@H]1Oc2ccc(NS(=O)(=O)c3cn(C)cn3)cc2CC(=O)N([C@H](C)CO)C[C@H]1C
14	-4.8	C[C@@H]1CCCCO[C@H](CN(C)Cc2ccncc2)[C@@H](C)CN([C@H](C)CO)C(=O)c2cc(NS(C)(=O)=O)ccc2O1
15	-0.8	Cc1noc(C)c1S(=O)(=O)Nc1cccc2c1O[C@H](CN(C)Cc1ccccc1)[C@H](C)CN([C@H](C)CO)C2=O
16	-3.7	COc1ccc(CN(C)C[C@@H]2Oc3c(NS(=O)(=O)c4ccc(OC)cc4)cccc3C(=O)N([C@H](C)CO)C[C@H]2C)cc1
17	-1.8	C[C@@H]1CN([C@@H](C)CO)C(=O)c2cccc(NC(=O)Nc3ccc(F)cc3)c2O[C@H]1CN(C)Cc1ccc(C(F)(F)F)cc1
18	0.8	Cc1noc(C)c1NC(=O)N(C)C[C@H]1Oc2ccc(N(C)C)cc2CC(=O)N([C@H](C)CO)C[C@@H]1C
19	-0.4	C[C@H]1CN([C@@H](C)CO)C(=O)c2cc(NS(=O)(=O)c3cn(C)cn3)ccc2O[C@@H]1CN(C)C(=O)NC1CCCCC1
20	5.8	Cc1noc(C)c1S(=O)(=O)N(C)C[C@H]1OCCCC[C@H](C)Oc2ccc(NS(C)(=O)=O)cc2C(=O)N([C@@H](C)CO)C[C@@H]1C
21	2.8	Cc1ccc(S(=O)(=O)N(C)C[C@H]2Oc3ccc(NC(=O)C4CC4)cc3CC(=O)N([C@@H](C)CO)C[C@@H]2C)cc1
22	5.4	C[C@@H]1CN([C@@H](C)CO)C(=O)c2cc(NC(=O)Nc3ccccc3)ccc2O[C@@H](C)CCCCO[C@H]1CN(C)C(=O)Cc1ccccc1
23	-1.0	Cc1noc(C)c1S(=O)(=O)Nc1ccc2c(c1)C(=O)N([C@@H](C)CO)C[C@@H](C)[C@@H](CN(C)C(=O)NC1CCCCC1)O2
24	0.9	COc1ccc(S(=O)(=O)Nc2ccc3c(c2)C(=O)N([C@H](C)CO)C[C@H](C)[C@@H](CN(C)S(=O)(=O)c2ccc(OC)cc2)O3)cc1

# (list continues)
item	Ran FRET	canonical_smiles
25	-0.6	COc1ccc(S(=O)(=O)Nc2ccc3c(c2)C(=O)N([C@H](C)CO)C[C@H](C)[C@@H](CN(C)C)O3)cc1
26	6.8	C[C@@H]1CN([C@H](C)CO)C(=O)c2cc(NS(=O)(=O)c3cccs3)ccc2O[C@H]1CN(C)CC1CC1
27	-1.7	C[C@H](CO)N1C[C@H](C)[C@H](CN(C)C(=O)CCC(F)(F)F)OCCCC[C@H](C)Oc2ccc(NS(=O)(=O)c3ccccc3)cc2C1=O
28	-3.2	C[C@@H]1CN([C@@H](C)CO)C(=O)c2cccc(NS(=O)(=O)c3cccs3)c2O[C@@H]1CN(C)S(=O)(=O)c1ccc(Cl)cc1
29	4.7	C[C@H](CO)N1C[C@H](C)[C@H](CN(C)S(=O)(=O)c2ccc(C#N)cc2)Oc2ncc(C#Cc3ccc(C(F)(F)F)cc3)cc2C1=O
30	0.2	C[C@@H]1CN([C@@H](C)CO)C(=O)c2cc(NC(=O)c3ccncc3)ccc2O[C@@H](C)CCCCO[C@H]1CN(C)Cc1ccncc1
31	4.6	CC(C)NC(=O)Nc1ccc2c(c1)C(=O)N([C@H](C)CO)C[C@H](C)[C@@H](CN(C)Cc1ccccc1)OCCCC[C@H](C)O2
32	-1.6	Cc1noc(C)c1S(=O)(=O)N(C)C[C@@H]1OCCCC[C@@H](C)Oc2ccc(N(C)C)cc2C(=O)N([C@H](C)CO)C[C@H]1C
33	-4.7	C[C@@H]1CCCCO[C@@H](CN(C)C(=O)Nc2ccccc2)[C@H](C)CN([C@@H](C)CO)C(=O)c2cc(NS(C)(=O)=O)ccc2O1
34	-1.7	C[C@@H]1CN([C@H](C)CO)C(=O)c2cccc(NC(=O)NC3CCCCC3)c2O[C@H]1CN(C)C(=O)Nc1cccc2ccccc12
35	-3.7	C[C@@H]1CCCCO[C@@H](CN(C)C)[C@H](C)CN([C@@H](C)CO)C(=O)c2cc(NS(=O)(=O)c3cccs3)ccc2O1
36	0.4	C[C@H](CO)N1C[C@H](C)[C@@H](CN(C)C)Oc2ccc(NS(=O)(=O)c3cn(C)cn3)cc2C1=O

# Following part:
item	Ran FRET	canonical_smiles
37	5.7	C[C@@H]1CN([C@H](C)CO)C(=O)c2cc(NC(=O)c3ccccc3)ccc2O[C@@H](C)CCCCO[C@H]1CN(C)C(=O)Nc1ccccc1
38	0.8	C[C@@H]1CCCCO[C@@H](CN(C)C)[C@@H](C)CN([C@@H](C)CO)C(=O)c2cc(NS(C)(=O)=O)ccc2O1
39	-1.9	CC(C)NC(=O)Nc1ccc2c(c1)C(=O)N([C@@H](C)CO)C[C@H](C)[C@H](CN(C)C(=O)C1CCCCC1)OCCCC[C@H](C)O2
40	9.4	C[C@@H]1CN([C@@H](C)CO)C(=O)CCCn2cc(nn2)CO[C@@H]1CN(C)C(=O)C1CC1
41	-0.4	Cc1noc(C)c1NC(=O)Nc1ccc2c(c1)C(=O)N([C@@H](C)CO)C[C@@H](C)[C@H](CN(C)C)OCCCC[C@@H](C)O2
42	0.3	CNC[C@@H]1Oc2ccc(NC(=O)CCC(F)(F)F)cc2CC(=O)N([C@H](C)CO)C[C@H]1C
43	-2.4	C[C@H]1CN([C@@H](C)CO)C(=O)CCCn2nncc2CO[C@@H]1CN(C)Cc1ccncc1
44	-4.0	CC(C)NC(=O)N(C)C[C@H]1Oc2ccc(NC(=O)CCC(F)(F)F)cc2CC(=O)N([C@H](C)CO)C[C@@H]1C
45	1.3	COc1ccc(CN(C)C[C@@H]2Oc3c(NS(=O)(=O)c4ccc(OC)cc4)cccc3C(=O)N([C@H](C)CO)C[C@@H]2C)cc1
46	-4.9	COc1ccc(S(=O)(=O)Nc2ccc3c(c2)C(=O)N([C@H](C)CO)C[C@H](C)[C@H](CN(C)Cc2ccncc2)O3)cc1
47	4.2	C[C@@H]1CN([C@@H](C)CO)C(=O)c2cc(NC(=O)Nc3ccc4c(c3)OCO4)ccc2O[C@H]1CN(C)C(=O)Nc1ccc2c(c1)OCO2
48	6.7	CNC[C@@H]1OCCCC[C@@H](C)Oc2ccc(NC(=O)CCC(F)(F)F)cc2C(=O)N([C@@H](C)CO)C[C@@H]1C

# Remaining list, next part:
item	Ran FRET	canonical_smiles
49	2.0	CNC[C@@H]1OCCCC[C@H](C)Oc2ccc(NS(=O)(=O)c3cccs3)cc2C(=O)N([C@H](C)CO)C[C@@H]1C
50	2.2	Cc1noc(C)c1NC(=O)Nc1ccc2c(c1)C(=O)N([C@@H](C)CO)C[C@H](C)[C@H](CN(C)Cc1ccncc1)OCCCC[C@@H](C)O2
51	1.7	C[C@@H]1CCCCO[C@@H](CN(C)S(=O)(=O)c2cn(C)cn2)[C@@H](C)CN([C@@H](C)CO)C(=O)c2cc(NS(C)(=O)=O)ccc2O1
52	0.6	Cc1noc(C)c1NC(=O)N(C)C[C@H]1OCCCC[C@H](C)Oc2ccc(N(C)C)cc2C(=O)N([C@H](C)CO)C[C@@H]1C
53	-3.8	C[C@@H]1CN([C@H](C)CO)C(=O)c2cc(N(C)C)ccc2O[C@@H](C)CCCCO[C@H]1CN(C)C(=O)Nc1ccccc1
54	5.1	C[C@H](CO)N1C[C@H](C)[C@@H](CN(C)C(=O)Nc2ccc(F)cc2)Oc2c(NC(=O)C3CCOCC3)cccc2C1=O
55	-6.7	COc1ccc(S(=O)(=O)Nc2ccc3c(c2)C(=O)N([C@H](C)CO)C[C@H](C)[C@H](CN(C)CC2CC2)O3)cc1
56	-1.5	CNC[C@H]1Oc2c(NC(=O)Nc3ccccc3)cccc2C(=O)N([C@@H](C)CO)C[C@@H]1C
57	-2.8	COc1ccc(CN(C)C[C@@H]2Oc3c(NC(=O)c4ccc(-c5nccs5)cc4)cccc3C(=O)N([C@@H](C)CO)C[C@H]2C)cc1
58	1.6	COc1ccc(CN(C)C[C@H]2Oc3c(NC(=O)NC(C)C)cccc3C(=O)N([C@H](C)CO)C[C@H]2C)cc1
59	?	CC(C)NC(=O)N(C)C[C@H]1OCCCC[C@@H](C)Oc2ccc(NC(=O)Nc3ccc4c(c3)OCO4)cc2C(=O)N([C@H](C)CO)C[C@@H]1C
60	-0.2	C[C@H](CO)N1C[C@H](C)[C@@H](CN(C)C(=O)NC2CCCCC2)Oc2c(NC(=O)Nc3ccc4c(c3)OCO4)cccc2C1=O
61	-1.1	Cc1cc(C(=O)Nc2cccc3c2O[C@@H](CN(C)CC2CC2)[C@@H](C)CN([C@@H](C)CO)C3=O)n(C)n1
62	-1.5	C[C@H](CO)N1C[C@H](C)[C@@H](CN(C)S(=O)(=O)c2ccc(Cl)cc2)Oc2ccc(NC(=O)NC3CCCCC3)cc2C1=O
63	0.2	C[C@@H]1CN([C@@H](C)CO)C(=O)c2cccc(NC(=O)Nc3ccc(C(F)(F)F)cc3)c2O[C@@H]1CN(C)C
